Compound activity as filed in PubChem BioAssay.
NPYLR7 ag: mosquito NPYLR7 agonism; HEK293T NPYLR7/Galpha15, GCaMP6s calcium fluorescence; activation, % at 10 µM; 270,000 compounds, 0.15% hits; AID 1259423; in the data active = activation above about 40%;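 note: 0% = vehicle and 100% = reference agonist at the receptor; some compounds past the cut are filed as inactive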
NPYLR7 ag max-min: second read-out of NPYLR7 ag, no call of its own (marks repeat the call); activation, %; measured here: Max-Min RFU normalised activation; some inactives read as strong as hits;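 span of the calcium signal over five minutes; 0% = vehicle and 100% = native peptide agonist; compound fluorescence can raise it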
Active calls of the source: *.

SMILES	NPYLR7 ag	NPYLR7 ag max-min
CCCCSc1nnc2c(n1)OC(c1c(OC)ccc3ccccc13)Nc1ccccc1-2 (stereo not drawn)	3	0
O=C(c1ccc(Cl)cc1)N1CCC(N2CCC(C(=O)N3CCOCC3)CC2)CC1	20	8
CC(=O)Nc1nc(CN2CCSC3(CCCCC3)C2)cs1	-8	-8
Cc1ncc([N+](=O)[O-])n1CCN1C(=O)c2c(C(C)C)nc3ccccc3c2C1=O	-7	-9
COc1ccccc1-c1nc2ccc(C)cn2c1NC(=O)C(C)Cl (stereo not drawn)	-1	3
Cc1nnc(SC(C(=O)c2ccccc2)c2ccccc2)s1 (stereo not drawn)	16	6
Cc1cc2nc(C(=O)N[C@H]3C[C@H]4C(=O)N(C)CC(=O)N4C3)cc(C)n2n1	-7	-9
CC1CN(C(=O)c2ccccc2)OC(c2ccc(Cl)cc2Cl)O1 (stereo not drawn)	8	7
COCCO[C@H]1[C@H](NC(=O)C(C)C)c2ccccc2C12CCN(C(=O)C1=CCCCC1)CC2	-5	-10
Cc1cccnc1CN(Cc1ccccc1)C(=O)C1CC2(CCNCC2)CN1 (stereo not drawn)	-3	-2
O=C(CN1CCOC1=O)N1CCCC(CCc2ccc(F)c(F)c2)C1 (stereo not drawn)	11	5
CCc1ccc[n+](C2=C(c3c(C)[nH]n(-c4cccc(Cl)c4)c3=O)C(=O)N(C(C)C)C2=O)c1	-2	5
COCCNC(=O)C1(C)CCCN(CCCC(=O)c2ccc(C)cc2)C1 (stereo not drawn)	8	0
CC(c1nccs1)N(C)C(=O)c1cnnn1-c1ccccc1 (stereo not drawn)	-1	-3
Cc1ccc(F)c(CN2C[C@@H](C(=O)O)C[C@@H](C(=O)NC3CC3)C2)c1Cl	6	4
Cc1cccc(OCC2c3ccsc3CCN2C(=O)CNCC2CCCO2)c1 (stereo not drawn)	-7	-7
CCNC(=O)c1cccc(Nc2c(Oc3ccccc3)cnn(-c3ccc(Cl)cc3)c2=O)c1	-4	0
Cc1cc([N+](=O)[O-])nn1CC(=O)N1CCN(C)CC1	4	6
CCc1nc2n(n1)C(=O)C(C(c1cccc(C(F)(F)F)c1)N1CCN(CC)CC1)S2 (stereo not drawn)	-3	-9
Cc1ccc(C2=NOCC(=O)N2C)cc1	6	4
CCOC(=O)c1c2c(n3c1ccc1ccccc13)C(=O)c1ccccc1C2=O	-11	-14
O=C(NCc1ccccc1)c1ccc(-c2cn[nH]c2)c2ccoc12	-1	3
COc1ccccc1-c1cccc(C(=O)N(C)Cc2snnc2C)c1	19	6
O=S(=O)(c1ccccc1)N1CCN(C2Cc3ccccc3C2)CC1	7	3
O=C(c1cccc(F)c1F)N(Cc1ccccc1)Cc1nc2cc(Cl)ccc2o1	4	1
CCc1cc(CN(C)Cc2cc3c(cc2Cl)OCO3)on1	-2	-1
Cc1nn(-c2ccccc2)c2c1cc(C=O)c1nnnn12	-7	-15
COc1cc(CNC(=O)c2ccc(-c3cc(-c4ccccc4)n[nH]3)cc2)cc(OC)c1	-2	11
C=C(C)COc1ccccc1C(=O)N(CC)C1CCOC(C)(C)C1 (stereo not drawn)	1	-1
Cc1nc(-c2ccc(Cl)cc2)nc(N2CCN(S(=O)(=O)c3cccc(C(F)(F)F)c3)CC2)c1Cc1ccccc1	4	8
COCCN(CCC(=O)NC1CC1)c1nc(-c2cccs2)nc2ccccc12	0	3
O=C(NNC1CC(=O)N(c2ccc(F)c(Cl)c2)C1=O)c1ccncc1 (stereo not drawn)	7	11
COc1ccc(C(c2ccccn2)N(C)C(=O)C2CCN(C(=O)CCc3ccccc3)CC2)cc1 (stereo not drawn)	5	-4
CCc1ccc(N2CC(C(=O)NCc3ccco3)CC2=O)cc1 (stereo not drawn)	15	8
CCCCCOc1cc(NCc2ccccc2)nc(NC(C)=O)n1	5	2
CCOc1cc(/C=C/c2nc3ccccc3c(=O)[nH]2)cc(Br)c1OC	1	-2
CC(C)(C)c1ccc(OCC(=O)ON=C(N)c2ccccc2)c(Br)c1	17	10
CC(=O)NCc1ccc(S(=O)(=O)Oc2cccc(C(F)(F)F)c2)cc1	2	0
O=C(O)c1nn(-c2ccc(F)cc2)c(=O)n(Cc2ccccc2F)c1=O	-4	3
CC1CCN(C(=O)C[C@@H]2c3nc(NC(=O)N4CCOCC4)sc3C[C@@H]3[C@](C)(CO)[C@H](O)CC[C@]32C)CC1	-10	-14
CCOc1ccccc1CN1CCCn2cccc2C1c1cccc(C(F)(F)F)c1 (stereo not drawn)	-9	-8
Cc1cccc(-c2nc(-c3cccnc3)no2)c1	3	4
O=S(=O)(NCCCOC1CCCCC1)c1cccc(Br)c1	0	-1
CN1C(=O)c2ccc(NC(=O)C(C)(C)c3cccs3)cc2C1=O	5	3
COc1ccc2oc(=Nc3ccc(Cl)cc3Cl)c(-c3nc4ccccc4[nH]3)cc2c1	-6	-8

Random excerpt: 5 compounds from above.
SMILES	NPYLR7 ag	NPYLR7 ag max-min
COCCN(CCC(=O)NC1CC1)c1nc(-c2cccs2)nc2ccccc12	0	3
O=C(NNC1CC(=O)N(c2ccc(F)c(Cl)c2)C1=O)c1ccncc1 (stereo not drawn)	7	11
CC(C)(C)c1ccc(OCC(=O)ON=C(N)c2ccccc2)c(Br)c1	17	10
CC1CCN(C(=O)C[C@@H]2c3nc(NC(=O)N4CCOCC4)sc3C[C@@H]3[C@](C)(CO)[C@H](O)CC[C@]32C)CC1	-10	-14
COc1ccc(C(c2ccccn2)N(C)C(=O)C2CCN(C(=O)CCc3ccccc3)CC2)cc1 (stereo not drawn)	5	-4

More entries.
SMILES	NPYLR7 ag	NPYLR7 ag max-min
O=C(CSc1ccc(-c2cccc([N+](=O)[O-])c2)nn1)N1CCN(c2ccccc2)CC1	2	1
Cc1ccc(Cc2nnc(Nc3ccccc3)[nH]c2=O)cc1	7	2
CC(C)NC(=O)[C@@H]1C[C@H](N)CN1CC1=CC[C@H]2C[C@@H]1C2(C)C	-2	-4
CC1CCC(N(C)C(=O)c2ccc3c(c2)NC(=O)CS3)CC1 (stereo not drawn)	6	7
Cc1ccc(S(=O)(=O)CCC(=O)OCc2ccc(S(=O)(=O)c3ccccc3)cc2)cc1	3	2
O=c1c([N+](=O)[O-])c(Cl)c2ccccc2n1Cc1ccccc1	11	9
O=C(c1cccc2nccnc12)N1CC(c2ccncc2)C1	3	3
CN(CCc1ccccc1)C(=O)c1nc2sccn2c1CN1CC[C@@H](O)C1	0	8
CCOCCOc1nc(-c2ccc(C(F)(F)F)cc2)n(-c2cccc(NC(=O)C3CCC3)c2)n1	10	13
O=C(C=Cc1ccc(Br)o1)N=C1N=C2C=CC(Br)=CN2Cc2ccccc21	27	62
O=c1c2sccc2nc(SCc2cc(=O)n3cc(Br)ccc3n2)n1C1CC1	22	11
Cc1ccnc(SCc2ccc(C(=O)N3C4CCC3CC(Oc3ccc(F)cc3F)C4)cc2)n1 (stereo not drawn)	-1	7
Cc1ccc(C(=O)Nc2ccccc2)cc1S(=O)(=O)Nc1cccc(F)c1	4	2
Cc1cccc(CN2CCC(N3CCC(C(=O)NCCc4ccco4)CC3)CC2)n1	2	1
O=C(Cc1coc2ccc3ccccc3c12)NCc1ccco1	0	-1
CC(C)C1CN(C(=O)c2cc(=O)[nH][nH]2)CCC(=O)N1Cc1ccc(F)cc1 (stereo not drawn)	19	14
Cc1cc(CN2CCC(Cc3nn(C)c(=O)n3-c3ccccc3)CC2)on1	10	5
COc1ccc(OC)c(C(=O)N2CC(=O)N(Cc3ccccc3)CC(OC)C2)c1 (stereo not drawn)	14	4
N#CCSc1nc2cc3c(cc2c(=O)n1CCC(=O)N1CCN(c2ccccc2)CC1)OCO3	1	-2
Cc1nonc1N1CCN(C(=O)CC2(c3ccccc3)CC(=O)N(Cc3cccs3)C2=O)CC1 (stereo not drawn)	13	9
Cc1ccc(C)c(CN(Cc2ccc(F)cc2)Cc2nc(C(=O)NC3CC3)co2)c1	9	27
CCc1cccc2c(C(CC(=O)NC(C)c3ccccc3)c3cccc(OC)c3)c[nH]c12 (stereo not drawn)	1	5
Fc1cccc(CSc2nnc3ccc(-c4ccncc4)nn23)c1	-13	-4
O=C(CSc1ccccc1)N1CCCC(CO)(Cc2ccc(F)cc2F)C1 (stereo not drawn)	9	4
CC1=NNc2nc3c(c(=O)n(Cc4ccccc4Cl)c(=O)n3C)n2C1C (stereo not drawn)	-10	-11
Cc1cc(C)n(-c2ccc(N3CCN(S(=O)(=O)c4cc(C)c(C)cc4C)CC3)nn2)n1	-6	-10
C=c1occc1=C1NN=C(SC2CCCCNC2=O)O1 (stereo not drawn)	-19	-18
CC1CCCCN1C(=O)c1ccc(COc2ccc([N+](=O)[O-])cc2)o1 (stereo not drawn)	11	8
O=S(=O)(Oc1cccc(F)c1)c1ccc2c(c1)OCCCO2	0	7
Cc1cc(OCC(=O)NCCCC(=O)N2CCc3ccccc32)no1	0	5
COc1ccc2[nH]c3c(c2c1)CCN(C(=O)COCc1ccccc1)C3c1ccc(C(F)(F)F)cc1 (stereo not drawn)	1	6
C=CCn1c(=NC(=O)C2=COCCO2)sc2cc(S(N)(=O)=O)ccc21	4	3
CCOC(=O)c1nn(-c2ccc(F)cc2)c(=O)c2c(NC(=O)c3ccc4ccccc4c3)scc12	3	2
CCOC(=O)C1=C(C)NC(=O)NC1c1ccccc1O (stereo not drawn)	-10	-14
CN(C)S(=O)(=O)NCc1cccnc1N1CCc2ccccc2C1	1	-8
O=C1CCC(C(=O)N2CCc3sccc3C2)CN1Cc1ccccn1 (stereo not drawn)	6	3
O=S(=O)(c1ccc(F)cc1)N1CCCC(OCc2cccc(Cl)c2)C1 (stereo not drawn)	-3	-2
O=C(Nc1cc(-c2nc3cc(Cl)ccc3o2)ccc1Cl)c1cccs1	22	34
Cc1nc(NC(CCn2cncn2)c2ccccc2)c2ccsc2n1 (stereo not drawn)	18	9
CC1CCN(c2ccc(NC(=O)c3ccc([N+](=O)[O-])cc3)cc2C(=O)NC(C)c2ccccc2)CC1 (stereo not drawn)	3	19
Cc1c(CN(C)c2ccnc(C(=O)NCc3ccco3)c2)cnn1C	-5	-4
CCOc1ccc(Cc2nnc(Nc3ccc(C)cc3C)[nH]c2=O)cc1	13	7
CC(=O)OCc1ccc(C)c(NS(=O)(=O)c2cc(C)c(F)cc2F)c1	2	9
COC(=O)[C@@H]1C[C@@H](NS(=O)(=O)c2cn(C)cn2)CN1C	12	11
CN(Cc1ccc(F)cc1F)C(=O)c1ccc2c(c1)OCC(=O)N2	1	1

A draw from above in order of number of heavy atoms, low to high.
SMILES	NPYLR7 ag	NPYLR7 ag max-min
CCOC(=O)C1=C(C)NC(=O)NC1c1ccccc1O (stereo not drawn)	-10	-14
CN(C)S(=O)(=O)NCc1cccnc1N1CCc2ccccc2C1	1	-8
O=C1CCC(C(=O)N2CCc3sccc3C2)CN1Cc1ccccn1 (stereo not drawn)	6	3
CCOC(=O)c1nn(-c2ccc(F)cc2)c(=O)c2c(NC(=O)c3ccc4ccccc4c3)scc12	3	2
COc1ccc2[nH]c3c(c2c1)CCN(C(=O)COCc1ccccc1)C3c1ccc(C(F)(F)F)cc1 (stereo not drawn)	1	6

The results go on.
SMILES	NPYLR7 ag	NPYLR7 ag max-min
O=C(/C(=C/c1ccccc1)c1ccccc1)N1CCC(c2ccc(F)cc2)CC1	-3	-11
O=C(CCn1cncn1)N1CCCC(CCc2ccccc2C(F)(F)F)C1 (stereo not drawn)	-2	-4
Cn1nc(-c2ccc(N3CCCCC3)c(NS(C)(=O)=O)c2)c2ccccc2c1=O	3	2
Cc1nc(CNC(=O)C2CCCN(C3CCN(Cc4ccccc4)CC3)C2)n[nH]1 (stereo not drawn)	5	0
CC1(N(O)C=C2C=CC(=O)C=C2)CCCCC1=O (stereo not drawn)	-10	-17
CC(C(=O)Nc1cc(Cl)cc(Cl)c1)N1CCN(Cc2ccco2)CC1 (stereo not drawn)	-9	-11
COc1cc(N2CCC3(CC2)CNC(=O)O3)ncn1	10	6
Cc1ccnc(Br)c1NC(=O)CCc1cn(C)nc1C	-5	-11
CCN1CCCC1CNC(=O)C(NC(=O)C1CCC(C)CC1)C(C)C (stereo not drawn)	-3	-3
CSCC[C@@H](CO)n1ccnc1-c1ccc(SC)cc1	7	-6
COc1cc(OC)cc(C(=O)N2CCC3(CC2)C(=O)N(CC(=O)NCC2CCCCC2)CN3c2ccccc2)c1	26	25
Cc1ccc(C)c(-n2nc(C)cc2NC(=O)CCl)c1	0	1
COc1ccc(C2=NN(c3ccccc3)C(c3ccc([N+](=O)[O-])cc3)C2)cc1 (stereo not drawn)	-4	-10
COc1cccc2sc(N(CCCn3ccnc3)C(=O)c3ccco3)nc12	-9	-15
O=C(Cc1ccc(O)cc1)N1C[C@@H]2C3CCC(CC3)[C@@H]2C1	16	10

Some of the compounds tested, so the mix of outcomes need not match the whole.
